# Bioassay records: PubChem BioAssay, Emory University Molecular Libraries Screening Center
# Measles inh = inhibitors of measles virus growth in infected cells; infected Vero cells, GFP fluorescence, 64 h; stronger effect = lower value; z-score (no concentration beside the values); 33,000 tested, 0.1% active;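 active = z-score under -3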;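 also: score is relative to mean and SD of the compound wells of a plate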
# * = called active by the depositor. The list is partial, so the mix of outcomes need not match the whole.
# The opening 3 entries, ahead of the listing:
Measles inh,SMILES
1.21,COC(=O)c1sc(=S)n(-c2c(C)cccc2C)c1N
-1.14,CCC(Sc1nc2ccc(Br)cc2c2nc3ccccc3n12)C(=O)N1CCOCC1 (configuration not stated)
-0.34,COc1cccc2c1OC1(C)CC2NC(=O)N1c1cccc(C(=O)NCCc2ccccc2)c1 (configuration not stated)

# The list itself, from the start:
Measles inh,SMILES
1.21,COC(=O)c1sc(=S)n(-c2c(C)cccc2C)c1N
-1.14,CCC(Sc1nc2ccc(Br)cc2c2nc3ccccc3n12)C(=O)N1CCOCC1 (configuration not stated)
-0.34,COc1cccc2c1OC1(C)CC2NC(=O)N1c1cccc(C(=O)NCCc2ccccc2)c1 (configuration not stated)
-0.62,COc1ccc(Cl)cc1N(CC(=O)N1CCC(Cc2ccccc2)CC1)S(=O)(=O)c1ccccc1
0,Cc1ccc2sc(-c3ccc(NCc4ccccc4OCC(=O)N4CCOCC4)cc3)nc2c1
-0.83,N#Cc1c2c(c(-n3ccnc3)n3c1nc1ccccc13)CCC2
-0.29,COc1ccc(CNCC2OCCc3ccccc32)c(OC)c1 (configuration not stated)
0.04,Cc1ccc(C(=O)Nc2cc(-c3nc4ccccc4o3)ccc2Cl)cc1[N+](=O)[O-]

Measles inh,SMILES
1.25,O=C(c1ccccc1)C(Sc1ncn[nH]1)c1ccccc1 (configuration not stated)
-0.86,CCOC(=O)CSc1nc2c(sc3ccccc32)c(=O)n1Cc1ccc(OC)cc1
0.43,Cc1c(OC(=O)C2CCCCC2)ccc2c3c(c(=O)oc12)CCC3
0.41,CC(=O)C1CCC2C3CC=C4CC(O)CCC4(C)C3CCC12C (configuration not stated)
-1.76,CN(C)CCNC(=O)Cc1cn(C)c2ccccc12
0.22,Cc1cccc(NC(=O)c2cc(=O)c3ccccc3o2)c1C
-0.92,CCCN1C(=O)C(O)(c2c(C)[nH]c3ccccc23)c2cc(Br)ccc21 (configuration not stated)
-0.53,CCOC(=O)c1ccc(-c2coc3cc(OC(C)=O)c(CC)cc3c2=O)o1

Measles inh,SMILES
-0.86,CCSc1nc2c(c(=O)[nH]1)C(c1ccc(OCc3ccccc3)cc1)C1=C(CC(C)(C)CC1=O)N2 (configuration not stated)
0.51,O=c1[nH]cnc2c1ncn2C1OC(CCl)C(O)C1O (configuration not stated)
0.97,COc1ccc(N2C(=O)CCC(C(=O)N(C)Cc3ccccc3)C2c2ccc(OC)c(OC)c2)cc1 (configuration not stated)
0.34,Cc1ccc(CN2CCN(C3CCCC3)CC2)cc1
0.3,C=CCn1c(-c2ccccc2)csc1=Nc1ccccc1C
-1.03,COC(=O)CCCC(=O)N1CCCCC1c1cccnc1 (configuration not stated)
2.17,Nc1sc2c(c1C(=O)NC1CCCCC1)CCCC2
-0.05,O=C(Nc1ccc(F)cc1)C1CC(=O)N(Cc2ccc3c(c2)OCO3)C(=Nc2ccccc2)S1 (configuration not stated)

Measles inh,SMILES
-3.28*,COc1ccc(-c2cc(=O)[nH]c(Sc3c(-c4ccccc4)c4cc(Cl)ccc4[nH]c3=O)n2)cc1
-1.04,CC(C)Oc1ccc(C(=O)Nc2cccc(-c3nc4ccccc4[nH]3)c2)cc1
-0.05,O=[N+]([O-])c1ccc(C2=Nn3c(nnc3-c3ccc4c(c3)OCO4)SC2)cc1
1.94,Cc1ccc(N2CC(C(=O)NCC3CCCO3)CC2=O)cc1 (configuration not stated)
0.86,COc1ccc(-n2c(CNC(=O)c3cccc4ccccc34)n[nH]c2=S)cc1
-0.43,CC(C)(C)NCc1ccccc1OCc1cccs1
1.26,O=c1nc2n(c3cc(Cl)ccc13)Cc1ccccc1-2
-0.05,Cc1ccc(C2C=C(c3cccc(Br)c3)Nc3ncnn32)cc1 (configuration not stated)

Measles inh,SMILES
2.28,CCc1nnc(NC(=O)CSc2nc(C)cc(C)c2C#N)s1
0.86,Cc1nc2ccc3nc(NC(=O)c4ccccc4Cl)sc3c2s1
-0.26,COC(=O)Cc1c(C)c2ccc(O)c(C)c2oc1=O
2,CCCc1oc2c(cc(NS(=O)(=O)c3ccccc3)c3ccccc32)c1C(=O)OCC
0.31,CN(C)c1ccc(NC(=O)CSc2nc3ccccc3c(=O)n2Cc2ccc3c(c2)OCO3)cc1
-0.94,O=C(Nc1ccc(Br)cc1)C1CCN(S(=O)(=O)c2cccc3nonc23)CC1
-0.47,Cc1nc(SCC(=O)Nc2ccc3c(c2)OCCO3)c2c3c(sc2n1)CCC3
-0.43,COc1ccc(C(=O)N2CCN(c3c(Cl)cccc3[N+](=O)[O-])CC2)cc1

Measles inh,SMILES
-0.87,COc1ccc(C2CC(c3ccc(OC)c(OC)c3)=NN2C(=O)c2cccs2)cc1 (configuration not stated)
-0.23,Cn1cnnc1SC1c2cccc3cccc(c23)C1NS(C)(=O)=O (configuration not stated)
0.81,COc1ccc(NC(=O)c2cc3nc(-c4cccs4)cc(C(F)(F)F)n3n2)c(OC)c1
-0.48,Cc1cc(C)n(C(=O)COc2ccc(Br)cc2)n1
-0.4,Cc1ccc(N2COc3cc4c(cc3C2)OCO4)cc1C
0.4,COC(=O)C1=CN(Cc2ccc(F)cc2)C=C(C(=O)OC)C1c1cccc(Oc2ccccc2)c1
-0.33,CC(=O)N(C)c1ccc(N=C2C(=O)Nc3ccc(C)c(Br)c32)cc1
1.12,CCOC(=O)c1cn(CC)c2ccc(S(=O)(=O)N3CCC(C)CC3)cc2c1=O

Measles inh,SMILES
-0.14,CCOC(=O)C1C(=O)C=C(C=Cc2cccs2)CC1c1ccccc1 (configuration not stated)
-0.92,COc1cc2c(C(=O)N3CCN(C)CC3)cn(C)c(=O)c2cc1OC
-0.24,CCc1cccc(NC(=O)C2c3ccccc3C(=O)N(CCOC)C2c2c[nH]c3ccccc23)c1 (configuration not stated)
0.17,CC1CC(C)CN(C(=O)c2ccc(Sc3ccc(F)cc3)c([N+](=O)[O-])c2)C1 (configuration not stated)
1.77,Cc1ccc(C(=O)Nc2ccc(Cl)c(NC(=O)c3ccccc3)c2)cc1[N+](=O)[O-]
1.02,O=C(NC1CCCCCC1)C1CCC(CNS(=O)(=O)c2ccccc2)CC1 (configuration not stated)
-1.3,CCOC(=O)c1c(C)n(CC)c2ccc(OC(=O)c3ccccc3C)cc12
0.86,O=C(c1ccc(Cn2c(=S)[nH]c3ccsc3c2=O)cc1)N1CCN(c2ccccc2)CC1

Measles inh,SMILES
-1.5,COc1ccc(Br)cc1C1Nc2ccccc2NC2=C1C(=O)CC(c1ccc(Cl)cc1)C2 (configuration not stated)
1.18,Cc1c(CCC#N)c(=O)n2c([nH]c3ccccc32)c1C#N
0.95,COc1ccc(C(=O)OCC(=O)c2ccccc2)cc1S(=O)(=O)N1CCOCC1
0.09,CCOc1ccc(Cc2nc3ccccc3[nH]2)cc1
-0.37,CCC(=O)N1CCc2cc(S(=O)(=O)NC3CCCC3)ccc21
1.44,COc1ccc2nc(Nc3nc(C)cc(-c4ccccc4)n3)nc(C)c2c1
-1.53,CC(C)c1ccc(NC(=O)c2n[nH]c(=O)c3ccccc23)cc1
-0.99,COc1ccc(N2CCN(C(=O)c3nn(-c4cccc(OC)c4)c(=O)c4ccccc34)CC2)cc1

Measles inh,SMILES
-0.64,Cc1cccc(C)c1N(CC(=O)N1CCCCC1)S(C)(=O)=O
-0.28,CCOC(=O)C1C(=O)C=C(c2cccs2)CC1c1ccco1 (configuration not stated)
0.26,COc1ccc(C(=O)N2CC(=O)Nc3ccc(C)cc3C2c2ccc(F)cc2)cc1 (configuration not stated)
-0.78,CCNC(=O)CC1Nc2cc(C)c(C)cc2NC1=O (configuration not stated)
1.03,CCc1ccc2nc(NC(N)=NS(=O)(=O)c3ccc(C)cc3)nc(C)c2c1
0.26,COC(=O)c1nnn(CC(=O)Nc2ccccc2C)c1C(=O)OC
1.19,CCOC(=O)c1cc(CC)sc1NC(=O)CC1Sc2ccc(C(F)(F)F)cc2NC1=O (configuration not stated)
-0.07,Cc1ccc(Oc2nc3c(c(=O)n(C)c(=O)n3C)n2Cc2ccc(Cl)cc2)cc1

Measles inh,SMILES
0.94,CCN(CC)S(=O)(=O)c1cc(C(=O)Oc2cccc(N3C(=O)c4ccccc4C3=O)c2)ccc1C
-1.66,CCOc1cc(C2C(C(=O)OC(C)C)=C(C)NC3=C2C(=O)CC(c2cccs2)C3)cc([N+](=O)[O-])c1O (configuration not stated)
-0.15,CCCn1c(=O)c(C(=O)NCc2ccco2)c(O)c2ccccc21
-0.97,Cc1ccc([N+](=O)[O-])cc1NC(=O)C1(C)CC2c3ccccc3C1c1ccccc12 (configuration not stated)
0.81,COc1ccccc1-n1c(CNC(=O)c2ccc(S(=O)(=O)N(C)C)cc2)n[nH]c1=S
0.28,CCN(CC)CCCNc1ccc(N2C(=O)C3C4C=CC(C4)C3C2=O)cc1[N+](=O)[O-] (configuration not stated)
0.65,Cc1ccc(NC(=O)c2cc3n(n2)C(C(F)(F)F)CC(c2ccccc2)N3)cc1C (configuration not stated)
-0.67,COC(=O)c1c(N2C(=O)CC(Sc3ncccc3C(=O)O)C2=O)sc(C)c1C (configuration not stated)

Measles inh,SMILES
0.31,CCN1CCN(c2ccc(N3C(=O)C4C5C=CC(C5)C4C3=O)cc2[N+](=O)[O-])CC1 (configuration not stated)
-0.02,O=C(Nc1nccs1)c1cc2cc(Br)ccc2oc1=Nc1cccc(C(F)(F)F)c1
-0.86,O=C(Nc1cc(Cl)ccc1C(=O)O)c1cccs1
1.19,CCN1CCN(C(=O)Cn2nc(-c3ccc(Cl)cc3)ccc2=O)CC1
-0.56,CCOc1ccc(C2C(C(=O)OC3CCCCCC3)=C(C)NC3=C2C(=O)C(C(=O)OC)C(C)C3)cc1 (configuration not stated)
-0.03,O=C(O)C(Cc1ccccc1)N1C(=O)C2C3CC(C(Br)C3Br)C2C1=O (configuration not stated)
-0.44,O=C(O)c1ccc(C2Nc3c(F)cccc3C3C=CCC32)cc1 (configuration not stated)
-0.89,CCCCN(CC)S(=O)(=O)c1ccc(C(=O)Nc2nnc(C)o2)cc1

# Laid out differently: 4 of the compounds above
Structure | Measles inh
O=C(Nc1cc(Cl)ccc1C(=O)O)c1cccs1 | -0.86
CCN1CCN(C(=O)Cn2nc(-c3ccc(Cl)cc3)ccc2=O)CC1 | 1.19
CCOc1ccc(C2C(C(=O)OC3CCCCCC3)=C(C)NC3=C2C(=O)C(C(=O)OC)C(C)C3)cc1 (configuration not stated) | -0.56
O=C(O)C(Cc1ccccc1)N1C(=O)C2C3CC(C(Br)C3Br)C2C1=O (configuration not stated) | -0.03

# The results go on.
Measles inh,SMILES
0.79,O=C(Nc1cccc(C(F)(F)F)c1)c1cc(-c2ccco2)nc2ccccc12
-1.36,CC1CCc2nc(NC(=O)c3ccc(S(=O)(=O)N4CCOCC4)cc3)sc2C1 (configuration not stated)
0.35,CCN(CC)C(=O)C1c2cc(OC)c(OC)cc2C(=O)N(C)C1c1ccc(SC)cc1 (configuration not stated)
-0.07,Cc1cc(C)nc(/N=C(\NC(=O)c2ccccc2)Nc2ccc(C(C)C)cc2)n1
1.26,O=C(NCC1CCCO1)C(=O)Nc1ccc(Br)cc1 (configuration not stated)
1.38,CC(C)C(=O)N1CC(=O)Nc2ccc(Br)cc2C1c1ccc(F)cc1 (configuration not stated)
-1.03,Cc1ccc2c(C)nc(N=C(N)N)nc2c1
0.56,O=C(Cc1c(C(=O)O)[nH]c2ccc(Cl)cc12)Nc1cccnc1

Measles inh,SMILES
-1.12,CCn1cnc2cc(NCc3cccc(OC)c3OC)ccc21
-0.47,CN(c1ccc(F)cc1)S(=O)(=O)c1ccc2[nH]cc(C(=O)N3CCCCCC3)c(=O)c2c1
-0.7,COC(=O)c1c(C)oc2ccc(OCC#N)cc12
-0.87,CCOc1ccccc1C(=O)N1CCN(c2ccccc2OCC)CC1
1.08,C=CCOC(=O)C1=C(C)NC(=O)NC1c1ccc(CC)cc1 (configuration not stated)
0.51,COc1cccc(C(=O)Nc2c3c(nn2-c2ccccc2)CSC3)c1OC
0.39,Cn1c2c(c(=O)n(C)c1=O)C(c1cccc(I)c1)C1C(=O)c3ccccc3C1=N2 (configuration not stated)
1.13,CC(C)OC(=O)C1C(c2ccccc2)C(C(=O)O)C1c1ccccc1 (configuration not stated)

Measles inh,SMILES
0,CC1CN(C(=O)c2ccc3c(c2)OCO3)CC(C)O1 (configuration not stated)
-0.45,CCc1ccc(C2C(C(=O)OCc3ccccc3)=C(C)N=C3SCCC(=O)N32)cc1 (configuration not stated)
-0.63,Cc1ccc(C(CCN)c2ccco2)cc1 (configuration not stated)
0.72,Cc1nc2cc(NC(=O)c3ccc(S(=O)(=O)N4CCC(C)CC4)cc3)ccc2s1
0.07,CCS(=O)(=O)N1CCC(C(=O)N2CCN(c3ccccc3)CC2)CC1
1.63,COc1ccc(C2CC(C(F)(F)F)n3nc(C(=O)NCCc4ccccc4)c(Cl)c3N2)cc1 (configuration not stated)
0.53,CC(C)CCn1c(SCC#N)nc2c(sc3ccccc32)c1=O
1.32,OCC(O)C(O)C(O)c1cnn(-c2ccccc2)n1 (configuration not stated)

# Reprinted at random: 3 entries already listed
Measles inh,SMILES
0.53,CC(C)CCn1c(SCC#N)nc2c(sc3ccccc32)c1=O
1.32,OCC(O)C(O)C(O)c1cnn(-c2ccccc2)n1 (configuration not stated)
0.07,CCS(=O)(=O)N1CCC(C(=O)N2CCN(c3ccccc3)CC2)CC1

# Following part.
Measles inh,SMILES
0.28,CCCc1nc2ccccc2n1Cc1ccccc1
-0.58,O=C(Cn1c(=S)[nH]c2ncccc2c1=O)NCc1ccc2c(c1)OCO2
-0.19,O=C(NCc1ccc(F)cc1)C1CCN(c2nc3ccccc3o2)CC1
-0.43,O=C1OC(N2CCN(c3ccccc3)CC2)c2ccccc21 (configuration not stated)
0.98,CC(=O)Nc1ccc2nc(NC(=O)c3ccc(S(=O)(=O)N4CCc5ccccc54)cc3)sc2c1
